Assay outcomes from PubChem BioAssay.
Menin-MLL FL inh: qHTS Assay for Inhibitors Targeting the Menin-MLL Interaction in MLL Related Leukemias: Competition With Fluorescein Labeled MLL-derived Peptide; FP activity change, % at 61.4 µM; AID 1766, 2009; Fluorescence polarization, fluorescein-MLL peptide displacement from menin; 290,000 tested, under 10 active; inconclusive = falling polarisation curve, or a change in total fluorescence; inactive = total fluorescence flat and polarisation flat or rising; no compound was filed as active; the % refers to the polarisation; negative = inhibition;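 also: % of control where 0% means no effect; inhibitors lower the polarisation; unlabelled MLL peptide was the positive control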
gsp agonist: qHTS for Agonist of gsp, the Etiologic Mutation Responsible for Fibrous Dysplasia/McCune-Albright Syndrome: qHTS; gsp mutant cells, cAMP HTRF, 30 min; control for the full effect not named in the record; 340,000 compounds, 0.13% hits; AID 624287, 2012; Potency, µM (doses to about 76.9 µM), inactives show top-dose activation (cAMP increase), hits mostly activators; active = well fitted activation curve with a large enough effect; inconclusive = small, poorly fitted or top-dose-only effect, or another doubt; inactive = no such curve, though single readings can be large or run the other way; cell line not stated here;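 also: phosphodiesterase inhibitor Ro 20-1724 added with compounds to block cAMP breakdown; potency is read from the fitted curve at half-maximal effect; nearly all actives have a fitted effect of over 60% in size; about a fifth of the inactives were tested at one dose only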
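Cells in DMEM/10% FBS with G418 were pretreated with compounds in DMSO plus […] (300 uM stock) for 30 min at 37C. cAMP was measured by HTRF (cAMP-d2 plus anti-cAMP antibody-K) after 30 min at room temperature.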
gsp antag: qHTS for Antagonists of gsp, the Etiologic Mutation Responsible for Fibrous Dysplasia/McCune-Albright Syndrome: qHTS; gsp-mutant cells, cAMP HTRF, 30 min; control for the full effect not named in the record; Potency, µM (series often up to 76.9 µM), inactives show top-dose activity change, negative = inhibition, actives largely listed as inhibitors; 340,000 compounds, 0.4% hits; active = falling curve of any shape with a large fitted effect; inconclusive = falling curve, mostly with a smaller effect; inactive = flat or rising curve; cell line not stated here;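 also: intracellular cAMP measured with PDE inhibitor Ro 20-1724 present during compound exposure; potency is read from the fitted curve at half-maximal effect; % is scaled to controls: 0 for no effect and ±100 for the full control effect; nearly all actives have a fitted effect of over 65% in size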
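HTRF cAMP measurement after 30 min RT detection following 30 min, 37C compound treatment alongside […] (added as 300 uM solution) in G418-selected cells seeded at 2000/well and grown 16–24 h.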
D2 ag: Beta-Arrestin HTS for Positive Allosteric Modulators of the Human D2 Dopamine Receptor: Agonists; DiscoveRx PathHunter D2 beta-arrestin, luminescence, 90 min; 100% = 57 uM dopamine signal; activation, % (test concentration not listed); 360,000 compounds, 0.084% hits; in the data active = activation above about 40%; inconclusive = about 15% to 40%; inactive = below about 15%; also: compound concentration not given in the record; the text of the record calls up to 30% inactive
Target sequence (P14416 whole entry, looked up): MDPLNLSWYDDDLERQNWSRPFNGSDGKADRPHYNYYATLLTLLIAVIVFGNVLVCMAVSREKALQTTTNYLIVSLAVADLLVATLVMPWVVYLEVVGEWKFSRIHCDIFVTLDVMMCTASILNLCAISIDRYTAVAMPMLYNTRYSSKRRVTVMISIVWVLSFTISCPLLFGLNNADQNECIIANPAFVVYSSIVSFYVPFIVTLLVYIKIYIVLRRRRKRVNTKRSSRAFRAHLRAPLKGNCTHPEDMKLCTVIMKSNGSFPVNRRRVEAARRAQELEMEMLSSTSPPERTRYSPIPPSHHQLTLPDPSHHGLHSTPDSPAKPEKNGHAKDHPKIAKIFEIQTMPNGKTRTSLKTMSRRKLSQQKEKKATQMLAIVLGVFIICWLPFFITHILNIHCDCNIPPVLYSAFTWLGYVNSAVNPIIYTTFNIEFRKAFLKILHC
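Agonist mode: compounds alone added to overnight-plated D2 PathHunter cells for 90 min at 37 C, with 57 uM final dopamine (EC100) defining full response. Beta-arrestin recruitment detected by chemiluminescent reagent, read after 1 h at ambient temperature.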
ClpP mod: qHTS Assay for Activators of ClpP. ATP-dependent Clp protease proteolytic subunit (Bacillus subtilis (strain 168)), P80244. purified B. subtilis ClpP, FRET peptide cleavage, 20 min. Potency, µM (titrated, usually from 57.5 µM), for the others: top-dose activity change, negative = active. 340,000 compounds, 1.9% hits. AID 651965, 2013; active = well fitted falling curve with a large enough effect; inconclusive = small, poorly fitted or top-dose-only effect; inactive = no such curve, though single readings can be large or run the other way; also: potency is read from the fitted curve at half-maximal effect; the source files actives as falling curves though it sought activators and does not explain the sign; nearly all actives have a fitted effect of over 65% in size; many hits overshoot -100%
Target sequence (P80244 whole entry, looked up): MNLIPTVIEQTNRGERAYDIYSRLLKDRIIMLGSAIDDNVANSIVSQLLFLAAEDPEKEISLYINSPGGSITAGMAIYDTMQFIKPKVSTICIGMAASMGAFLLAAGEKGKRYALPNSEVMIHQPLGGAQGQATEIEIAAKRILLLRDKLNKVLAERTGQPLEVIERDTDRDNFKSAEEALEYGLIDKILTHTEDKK
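ClpP 10 microg/mL final, pH 8 Tris/KCl buffer with BSA, glycerol, Tween-20; compound pinned in; FRET-FV substrate; RT 20 min; Ex320/Em430; ΔFRET vs ADEP 5.8 microM, DMSO, no enzyme.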
PINK1 modulator: A Quantitative High throughput Screen to Identify Chemical Modulators of PINK1 Expression. PINK1 immunofluorescence, high-content cytometry, 24 h. Potency, µM (series often up to 76.6 µM), without a hit: at the top dose activation (PINK1 increase), hits mostly activators. 410,000 compounds, 0.2% hits; active = well fitted activation curve with a large enough effect; inconclusive = small, poorly fitted or top-dose-only effect; inactive = flat fitted curve, though single readings scatter; cell line not stated here;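 also: potency is read from the fitted curve at half-maximal effect; % of control where 0% means no effect; nearly all actives have a fitted effect of over 65% in size; a mitochondrial uncoupler was the plate control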
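Decision-based qHTS: stable cells, 24 h exposure to five compound concentrations, CCCP as control. Fixed cells stained for PINK1 plus nuclear, mitochondrial and cell markers, cytometer read.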
Sfp PPTase inh: qHTS Assay for Inhibitors of Bacillus subtilis Sfp phosphopantetheinyl transferase (PPTase); Biochemical Sfp PPTase activity, qHTS; Potency, µM, for the others: max response, negative = inhibition, actives largely listed as inhibitors; 310,000 compounds, 3.5% hits; AID 1490, 2009; active = well fitted inhibition curve with a large enough effect; inconclusive = small, poorly fitted or top-dose-only effect, or another doubt; inactive = no such curve, though single readings can be large or run the other way;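 also: the enzyme is Sfp with the accession as filed and its product quenches rhodamine fluorescence; potency is read from the fitted curve at half-maximal effect; 0% = enzyme reaction without inhibitor and -100% = no enzyme wells; top concentration of the series not given in the record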
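With Hepes-Na pH 7.6 buffer containing 10 mM MgCl2, Sfp (15 nM) modified BHQ-2-YbbR (12.5 uM) using rhodamine-CoA (5 uM). Two reads 30 minutes apart at 525/598 nm yielded each well's rate.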
Numbers without * were called inactive; ? = inconclusive; · = no result given; [ ] = another dose, or the depositor's remark.

Fields: Menin-MLL FL inh	gsp agonist	gsp antag	D2 ag	ClpP mod	PINK1 modulator	Sfp PPTase inh
> CCCC[C@@H]1C[C@H]1[C@@H](NC(=O)c1ccco1)c1ccc(C(=O)OC)cc1
    ·	16%	6%	0.3	2.0%	0.1%	·
> CC1=C(C(=O)N(C(C)C)C(C)C)CC(CC(=O)NCc2ccco2)C(=O)N1CCCN1CCCC1=O (stereo not drawn)
    ·	·	·	2.0	0.6%	-0.1%	·
> COC(=O)c1ccccc1NN=Nc1ccccc1[N+](=O)[O-]
    ·	-57%[inhibitor]	·	-3.0	1.4%	-0.1%	·
> Cc1cc(C)c2cc(C#N)c(SCC(=O)NCc3ccco3)nc2c1
    ?	19%	-1%	-4.8	-7.1%	5.9%	22µM*
> Cc1cc(C)c2c(c1)OC(=O)CC2c1ccccc1C (stereo not drawn)
    -0.7[94.6 µM]	·	-10%	0.1	0.0%	1.0%	?
> CC(=O)c1sc(=S)n(-c2ccc(Cl)cc2)c1C
    -0.9	4%	-12%	-10	1.2%	1.2%	15%
> CC(C)CCC(O)(CCC(C)C)C(=O)NN1CCCCC1
    -2.0	17%	15%	0.0	-11%	-0.1%	4%
> O=C(O)Cc1ccc(NC(=S)NCc2ccco2)cc1
    1.5	-31%	-1%	-2.6	2.0%	0.0%	-24%
> CN(CCc1ccccn1)S(=O)(=O)c1ccc2c3c(cccc13)C(=O)N2
    1.3	26%	-6%	4.8	25µM*	-1.1%	14%
> Cc1cccc(C(=O)N2CCC(=O)N(C(COCc3cccc(C(F)(F)F)c3)Cc3ccccc3)CC2)c1 (stereo not drawn)
    -1.2	·	-1%	2.1	-0.5%	19%	4%
> CN(C(=O)COC(=O)CNC(=O)c1cccs1)c1c(N)n(Cc2ccccc2)c(=O)[nH]c1=O
    ·	0%	1%	8.7	-1.9%	0.1%	·
> CCn1c(/N=C/c2c[nH]c3ccccc23)nc2ccccc21
    3.7	-11%	-17%	4.7	0.3%	6.5%[38.3 µM]	-2%
> COC(=O)Nc1ccc(S(=O)(=O)N2CCC(C)CC2)cc1
    1.6	2%	4%	-0.3	-0.4%	0.0%[38.3 µM]	9%
> O=C(NNC(=O)c1ccc(Oc2ccc(C3SCCS3)cc2)o1)c1ccc(Cl)cc1
    -0.3	-28%	-1%	8.9	-4.3%	3.3%	12%
> CCCCn1c(SCC(=O)c2ccc(O)c(O)c2)nc2ccsc2c1=O
    3.0	-41%[inhibitor]	-30%	11	-0.1%	?	1%
> CCCC(C)c1nnc(NC(=O)CS(=O)(=O)Cc2ccccc2)s1 (stereo not drawn)
    -1.1	18%	-12%	1.8	0.9%	0.6%	-29%
> CC(=O)N[C@@H](Cc1ccc(O)cc1)CN1C(N)=NC[C@@H]1CC(C)C
    -2.8	19%	11%	-3.3	1.2%	1.6%	3%
> CC(C)(C)CN1CCN(CCCc2ccccc2)C(CCO)C1 (stereo not drawn)
    -1.2	-5%[15.4 µM]	10%	-0.7	0.2%	-0.7%	-7%
> COC(=O)C1CCN(C2CC(=O)N(c3cc(C)cc(C)c3)C2=O)CC1 (stereo not drawn)
    1.9	-7%	1%	1.2	·	0.5%	7%
> CCOc1ccc(CCNC(=O)c2cc(S(=O)(=O)N3CCOCC3)ccc2C)cc1OCC
    ·	16%	-15%	0.3	-1.8%	1.2%	·

Marked active in Sfp PPTase inh, among the entries above:
| smiles | Menin-MLL FL inh | gsp agonist | D2 ag | PINK1 modulator | Sfp PPTase inh |
| --- | --- | --- | --- | --- | --- |
| Cc1cc(C)c2cc(C#N)c(SCC(=O)NCc3ccco3)nc2c1 | ? | 19% | -4.8 | 5.9% | 22µM* |

(list continues)
Fields: Menin-MLL FL inh	gsp agonist	gsp antag	D2 ag	ClpP mod	PINK1 modulator	Sfp PPTase inh
> O=C(Nc1ccc(Oc2ccccc2)cc1)C1CCCN(c2ncccn2)C1 (stereo not drawn)
    2.0	6%	4%	-1.6	-3.1%	18%	-11%
> O=C(c1ccc(Cl)c(S(=O)(=O)N2CCCCC2)c1)N1CCCCC1
    -2.7	-29%	-42%	-3.6	-0.1%	0.0%	6%
> CCN(CC)CCN(C(=O)c1ccc2ccccc2c1)c1nc2ccc(F)cc2s1
    -1.3	8%	10%	-3.6	-2.2%	9.1%	1%
> Cc1cc([N+](=O)[O-])nn1CC(=O)N/N=C/c1ccccc1Br
    -0.4	9%[15.4 µM]	-2%	-5.1	0.6%	2.0%	16%
> Cc1cc(Br)ccc1NC(=O)CNC(=O)c1ccc(-n2cncn2)c([N+](=O)[O-])c1
    ·	-15%	?	3.1	-5.8%	2.7%	·
> CC(=O)N1CCN(S(=O)(=O)c2cccc(C(=O)N(Cc3ccccc3)c3cccc(C)c3)c2)CC1
    ·	-38%[inhibitor]	?	-3.8	0.7%	3.8%	·
> COC(CNC(=O)c1ccc2c(c1)ncn2C1CCCCCC1)OC
    6.2	-12%	2%	4.3	-0.1%	0.5%	12%
> O=C(CCCN=C1NS(=O)(=O)c2ccccc21)OCc1ccc(F)cc1
    ·	-6%	-9%	-0.8	-3.1%	2.5%	·
> CCCN(CC(=O)Nc1ccc(F)c(F)c1F)C(=O)c1ccc2c(=O)n3c(nc2c1)CCC3
    ·	4%	0%	-2.7	-5.1%	0.1%	·
> CC1(C(=O)Nc2cnc3ccccc3c2)CCN1Cc1ccc(OC(F)(F)F)cc1 (stereo not drawn)
    ·	·	·	-1.5	-3.7%	3.9%	·
> Cc1ccc(-c2nnc(SCC(=O)N3CCOCC3)nc2-c2ccc(C)cc2)cc1
    1.6	-1%	-21%	-4.3	-0.6%	-2.5%	-16%
> CC(C)Nc1ncnc2ccc(Br)cc12
    -1.9	?	-11%	-1.7	1.0%	-1.5%	8%
> NS(=O)(=O)c1ccc(NC(=O)/C=C/c2ccccc2Cl)cc1
    -1.9	-9%[15.4 µM]	-5%	-3.0	-0.4%	3.6%	12%
> CN1CCC(=NNC(=O)C(=O)Nc2ccccc2)CC1
    1.0	-26%	8%	0.9	-0.3%	-1.9%[38.3 µM]	-3%
> Cc1nn(C)c(C(=O)NC(=S)Nc2ccccc2O)c1Cl
    ·	2%	-9%	-16	-0.2%	-0.9%	-1%
> COc1ccc(S(=O)(=O)Nc2cc(C(=O)NCCC(C)C)ccc2N2CCOCC2)cc1
    0.8	6%	-8%	-3.2	-0.7%	-2.7%[38.3 µM]	11%
> CCOC(=O)CCC(=O)N(CCN(C(=O)CCC(=O)OCC)c1ccccc1)c1ccccc1
    6.5	3%	-2%	-0.9	-1.6%	0.5%	7%
> Oc1c(CN2CCOCC2)cc(CN2CCOCC2)c(O)c1CN1CCOCC1
    ·	2%	-1%	1.8	·	-2.3%	·
> CC(C)c1ccc(S(=O)(=O)N2CCN(C(=O)[C@@H]3CCCN3C(=O)c3cccs3)CC2)cc1
    ·	?	7%	-8.0	0.9%	17%	·
> CC(C)S(=O)(=O)N1CCCC(c2cc(C(=O)NCc3ccccc3)no2)C1 (stereo not drawn)
    ·	·	·	-3.1	-0.2%	0.8%	·

4 entries from above, sorted by their value in PINK1 modulator, falling.
mol	PINK1 modulator
Cc1cccc(C(=O)N2CCC(=O)N(C(COCc3cccc(C(F)(F)F)c3)Cc3ccccc3)CC2)c1 (stereo not drawn)	19%
CCN(CC)CCN(C(=O)c1ccc2ccccc2c1)c1nc2ccc(F)cc2s1	9.1%
O=C(CCCN=C1NS(=O)(=O)c2ccccc21)OCc1ccc(F)cc1	2.5%
COC(CNC(=O)c1ccc2c(c1)ncn2C1CCCCCC1)OC	0.5%

Additional entries follow.
Fields: Menin-MLL FL inh	gsp agonist	gsp antag	D2 ag	ClpP mod	PINK1 modulator	Sfp PPTase inh
> COC(=O)c1cc(S(=O)(=O)NCc2ccc(S(N)(=O)=O)cc2)oc1C
    4.9	11%[15.4 µM]	11%	3.4	·	0.0%	18%
> CC1CCN(S(=O)(=O)c2cn(CC(=O)N3CC(C)CC(C)C3)c(=O)c3ccccc23)CC1 (stereo not drawn)
    6.4	4%	3%	-6.5	-3.5%	7.8%	7%
> CC(=O)c1cccc(-c2ccc3c(c2)C(C)(Cc2ccccc2C#N)C(=O)N3)c1 (stereo not drawn)
    ·	·	·	4.0	-5.8%	9.8%	·
> CCc1nnc(NC(=O)CSc2nnc3ncccn23)s1
    -1.7	?	7%	0.8	-4.4%	-0.9%[38.3 µM]	-4%
> CCCCNC(=O)N(O)C1N(/N=C/c2ccccc2OC)C(=S)SC1(C)C (stereo not drawn)
    0.5	-3%[15.4 µM]	-11%	-3.8	0.0%	0.3%	13%
> CC1CC(C)CN(C(=O)C2CCCN(S(=O)(=O)c3cnc[nH]3)C2)C1 (stereo not drawn)
    -0.1	-29%	3%	9.2	-0.9%	1.1%	19%
> Cc1cc[n+](CC(=O)c2ccc3c(c2)OCCO3)cc1
    5.2	1%[15.4 µM]	4%	-1.0	·	4.6%	11%
> COc1ccccc1OCCNC(=O)C1CCCCC1
    -3.7	-16%	2%	-7.2	·	-0.7%	-6%
